Source: PubChem BioAssay (National Center for Advancing Translational Sciences (NCATS))
Cruzain noTriton = inhibitors of Trypanosoma cruzi cruzain without detergent; P25779; purified cruzain, Z-FR-AMC fluorescence, no detergent; Potency, µM, for the others: max response, negative = inhibition, actives largely listed as inhibitors; 2.3% of 200,000 active; AID 1476; active = well fitted curve in the direction sought with a large enough effect; inconclusive = small, poorly fitted or top-dose-only effect, or another doubt; inactive = no such curve, though single readings can be large; an effect the other way counts as inactive or inconclusive;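 note: plate controls were enzyme without inhibitor for no effect and buffer without enzyme for full effect; nearly all actives have a fitted effect of over 40% in size; top concentration of the series not given in the record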
Target sequence (P25779 123-467 limits assumed): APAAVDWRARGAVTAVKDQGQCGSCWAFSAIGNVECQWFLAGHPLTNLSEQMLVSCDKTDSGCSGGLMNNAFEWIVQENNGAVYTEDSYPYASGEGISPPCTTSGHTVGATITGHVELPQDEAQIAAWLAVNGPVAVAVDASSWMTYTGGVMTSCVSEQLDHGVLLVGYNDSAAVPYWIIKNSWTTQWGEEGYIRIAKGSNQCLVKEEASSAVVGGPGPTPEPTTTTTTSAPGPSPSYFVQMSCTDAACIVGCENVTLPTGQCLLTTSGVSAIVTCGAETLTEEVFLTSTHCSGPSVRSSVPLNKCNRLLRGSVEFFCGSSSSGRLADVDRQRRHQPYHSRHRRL
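Purified cruzain at 1.5 nM, pre-incubated 15 min with compound at room temperature in 100 mM sodium acetate pH 5.5, 5 mM DTT, 0.00005% Triton X-100. Reaction started with 2 uM Z-FR-AMC; AMC fluorescence increase over 60 s gives rate.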
NS1 function inh = blocks influenza NS1 protein function. S. cerevisiae slowed by influenza A NS1, growth recovery by OD600. Potency, µM (titrated, usually from 46.1 µM), inactives show top-dose activity, positive = more growth. 0.4% of 270,000 active. AID 2326; note: actives are rising curves; nearly all actives have a fitted effect of over 50% in size
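OD600 was taken as the measure of yeast growth restored by compound in an NS1-expressing S. cerevisiae strain. Cells had been washed out of glucose medium and diluted 1:100 into galactose -URA medium, pH 6.0.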
MARV entry inh = blocks Marburg virus binding to or entry into cells. Marburg virus pseudotyped entry inhibition, cell reporter; control for the full effect not named in the record; about a third of the inactives were read at about 46 µM. Potency, µM (highest dose often 37.8 µM), for the others: at the highest dose activity change, negative = inhibition, hits mostly inhibitors. 1.8% of 300,000 active. AID 540276; active = well fitted inhibition curve with a large enough effect; inconclusive = small, poorly fitted or top-dose-only effect, or effect the other way; inactive = flat fitted curve, though single readings scatter; tested in HEK293 cells; about a fifth of its hits are not listed in these tables; note: % is set by controls: 0 for no effect and ±100 for the full control effect; luciferase read-out
SARS PLpro yeast = SARS-CoV PLP inhibition in yeast; S. cerevisiae expressing SARS-CoV PLpro, growth rescue; control for the full effect not named in the record; Potency, µM (titrated, usually from 32.9 µM), without a hit: top-dose activity, positive = growth rescue; 0.19% of 330,000 active; AID 485353; note: 0% is about no effect; nearly all actives have a fitted effect of over 55% in size; growth read by luminescence after 48 h
Cruzain inh Det = inhibitors of Trypanosoma cruzi cruzain with detergent; 0.43% of 200,000 active; AID 1478; Potency, µM, for inactives: max response, negative = inhibition, most hits filed as inhibitors; P25779; purified cruzain, Z-FR-AMC fluorescence, 0.01% Triton; active = well fitted curve in the direction sought with a large enough effect; inconclusive = small, poorly fitted or top-dose-only effect, or another doubt; inactive = no such curve, though single readings can be large; an effect the other way counts as inactive or inconclusive;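 note: plate controls were neutral wells for no effect and buffer without enzyme for full effect; nearly all actives have a fitted effect of over 40% in size; top concentration of the series not given in the record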
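Cruzain (1.5 nM) preincubated 15 min at RT with compound in 100 mM sodium acetate pH 5.5, 5 mM DTT, 0.01% Triton X-100. Reaction started with 2 uM Z-FR-AMC; AMC fluorescence (ex 360/em 450 nm) change over 60 s gave rate.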
RE007 growth inh = less growth of the S. pombe RE007 Vpr strain. Potency, µM (series often up to 92.2 µM), inactives show at the top dose activity change, negative = less growth. AID 651644. S. pombe RE007 Vpr strain, BacTiter-Glo ATP luminescence, 24 h; control for the full effect not named in the record. 0.21% of 360,000 active; active = well fitted falling curve with a large enough effect; inconclusive = small, poorly fitted or top-dose-only effect; inactive = no such curve, though single readings can be large or run the other way;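 note: % is set by controls: 0 for no effect and ±100 for the full control effect; nearly all actives have a fitted effect of over 50% in size; the assay follows cell death caused by Vpr and the record does not say whether a fall means rescue or toxicity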
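Fission yeast strain RE007, carrying one chromosomally integrated HIV-1 vpr copy, was seeded at OD 0.01 in PMG+AL medium with 23 nL pinned compound. After 24 h at 30 °C and 99% humidity, viability was read by BacTiter-Glo luminescence.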
2A StopGo = FMDV 2A StopGo reporter, luciferase signal | human cells with a luciferase reporter of 2A StopGo recoding; control for the full effect not named in the record | Potency, µM (highest dose often 57.9 µM), without a hit: at the top dose signal change, negative = less light | 1.2% of 410,000 active | AID 1159524; active = well fitted falling curve with a large enough effect; inconclusive = small, poorly fitted or top-dose-only effect; inactive = no such curve, though single readings can be large or run the other way; tested in HEK293T cells; note: % is set by controls: 0 for no effect and ±100 for the full control effect; nearly all actives have a fitted effect of over 45% in size; luciferase light after 4 h
Lassa entry inh = inhibitors of Lassa virus binding or cell entry | AID 540256 | 1.2% of 300,000 active | Potency, µM (series often up to 37.9 µM), without a hit: top-dose activity change, negative = inhibition, actives largely listed as inhibitors | Lassa virus pseudotype entry inhibition, cell reporter; control for the full effect not named in the record; active means well fitted inhibition curve with a large enough effect; inconclusive means small, poorly fitted or top-dose-only effect, or effect the other way; inactive means flat fitted curve, though single readings scatter; tested in HEK293 cells; note: % is set by controls: 0 for no effect and ±100 for the full control effect; nearly all actives have a fitted effect of over 50% in size; luciferase read-out
Starred values were filed as active, the others as inactive; [ ] = remark or other dose. Unless noted, calls come from the whole dose curve; as a rule, active means well fitted rising curve with a large enough effect; inconclusive means small, poorly fitted or top-dose-only effect; inactive means no such curve, though single readings can be large or run the other way. Potency is the fitted concentration of half-maximal effect.

How did Cc1c(NS(=O)(=O)c2ccc3c(c2)Cc2ccccc2-3)c(=O)n(-c2ccccc2)n1C do in these assays?
NS1 function inh: 1.1%; SARS PLpro yeast: -0.2%; RE007 growth inh: 7.5%; 2A StopGo: 4.5%

How did COCCNc1ccc(-c2nc(-c3ccccn3)no2)cc1[N+](=O)[O-] do in these assays?
Cruzain noTriton: 14.3%; MARV entry inh: 9.4%[46.1 µM]; Cruzain inh Det: -8.2%; 2A StopGo: -10.1%; Lassa entry inh: -13.7%[46.1 µM]

Results for CCN(CC)CCCNC(=O)c1ccc2c(c1)N(Cc1c(F)cccc1Cl)C(=O)c1ccccc1S2 ?
Cruzain noTriton: 13.2%; MARV entry inh: 6.31µM*; Cruzain inh Det: 16.2%; 2A StopGo: -15.0%; Lassa entry inh: inconclusive

What do the screens show for `Cc1cc(C)c(Cn2c3ccccc3c3cnn(CC(=O)N4CCCCCC4)c(=O)c32)c(C)c1`?
Cruzain noTriton: -7.6%; MARV entry inh: 24.8%[46.1 µM]; Cruzain inh Det: -2.4%; 2A StopGo: -5.1%; Lassa entry inh: inconclusive

How did O=C(CSc1nc2c([nH]c3ccccc32)c(=O)n1-c1ccccc1)c1ccc(Cl)cc1 do in these assays?
Cruzain noTriton: 0.7%; Cruzain inh Det: -0.3%; 2A StopGo: -12.5%; Lassa entry inh: -1.0%[46.1 µM]

How did Clc1nc(Cl)c2ncn(-c3ccccc3)c2n1 do in these assays?
MARV entry inh: -18.9%; RE007 growth inh: inconclusive; 2A StopGo: inconclusive; Lassa entry inh: inconclusive

What do the screens show for `O=C(NCCc1ccc(Cl)cc1)c1cc(-c2ccccc2)n[nH]1`?
Cruzain noTriton: 6.5%; Cruzain inh Det: -0.6%; 2A StopGo: -6.9%; Lassa entry inh: -10.7%[46.1 µM]

Results for COc1ccc(CN(CC(=O)NCCc2ccccc2)C(=O)CCC(=O)Nc2ccccn2)cc1 ?
NS1 function inh: -7.3%; MARV entry inh: 12.9%[46.1 µM]; SARS PLpro yeast: -2.5%; RE007 growth inh: -26.3%; 2A StopGo: -1.1%; Lassa entry inh: 5.7%

What do the screens show for `CSc1ccccc1NC(=O)C1=COCCO1`?
NS1 function inh: 3.4%; MARV entry inh: 3.1%[46.1 µM]; SARS PLpro yeast: -1.6%; RE007 growth inh: -10.2%; 2A StopGo: 0.4%; Lassa entry inh: 22.4%[46.1 µM]

Results for CSCCC(NS(=O)(=O)c1ccc(C)cc1)C(=O)N1CCN(C(c2ccccc2)c2ccccc2)CC1 (stereo not drawn) ?
MARV entry inh: inconclusive; SARS PLpro yeast: -1.2%; RE007 growth inh: 11.5%; 2A StopGo: 4.2%; Lassa entry inh: 3.55µM*

How did CCOc1ccc(NC(=O)NCCN2CCN(c3cc(Cl)ccc3C)CC2)cc1 do in these assays?
Cruzain noTriton: -5.4%; MARV entry inh: 9.4%[46.1 µM]; Cruzain inh Det: -1.6%; 2A StopGo: -19.6%; Lassa entry inh: inconclusive

What do the screens show for `Cc1ccc(NC(=O)CCc2ccccc2)cc1S(=O)(=O)N1CCOCC1`?
MARV entry inh: -10.7%; SARS PLpro yeast: -8.6%; RE007 growth inh: -13.6%; 2A StopGo: -13.1%; Lassa entry inh: inconclusive

Results for COc1ccc(OC)c(-c2nc(C(N)=O)c3[nH]c(=O)n(-c4ccc(F)cc4)c3n2)c1 ?
Cruzain noTriton: 0.3%; NS1 function inh: 8.3%; SARS PLpro yeast: -0.6%; Cruzain inh Det: 2.7%; RE007 growth inh: 1.5%; 2A StopGo: -20.2%

Results for O=S(=O)(Nc1ccc(Oc2ncccn2)c(Cl)c1)c1ccc(F)cc1 ?
Cruzain noTriton: -10.1%; NS1 function inh: 10.2%; MARV entry inh: 28.0%; SARS PLpro yeast: 12.7%; Cruzain inh Det: 3.7%; RE007 growth inh: 0.5%; 2A StopGo: 59.7%[activator]; Lassa entry inh: -1.0%

What do the screens show for `CC(C)C(NC(=O)CSc1ccc(Cl)cc1)C(C)C`?
Cruzain noTriton: -3.6%; NS1 function inh: -15.1%; MARV entry inh: -18.1%; SARS PLpro yeast: 3.0%; Cruzain inh Det: 0.7%; RE007 growth inh: -1.7%; Lassa entry inh: 11.2%

How did CC(C)Oc1ccccc1/C=N/NC(=O)c1ccc(F)cc1 do in these assays?
Cruzain noTriton: -5.1%; NS1 function inh: 5.5%; MARV entry inh: inconclusive; SARS PLpro yeast: -3.2%; Cruzain inh Det: -9.1%; RE007 growth inh: 2.0%; 2A StopGo: -6.6%; Lassa entry inh: inconclusive

What do the screens show for `O=C(N/N=C/c1cccnc1)c1ccccc1OCc1cccc(Br)c1`?
MARV entry inh: inconclusive; SARS PLpro yeast: -3.5%; RE007 growth inh: 3.4%; 2A StopGo: inconclusive; Lassa entry inh: -15.2%

How did Clc1ccc(CCNC(c2cccc(Cl)c2)c2nnc(-c3ccccc3)o2)cc1 (stereo not drawn) do in these assays?
Cruzain noTriton: 6.2%; MARV entry inh: inconclusive; Cruzain inh Det: -4.1%; 2A StopGo: 16.2%; Lassa entry inh: -0.7%[46.1 µM]

What do the screens show for `CCCN(CCC)CC(O)Cn1cc(/C=C/C(=O)c2ccc(OCC)cc2)c2ccccc21` (stereo not drawn)?
Cruzain noTriton: 0.3%; MARV entry inh: inconclusive; Cruzain inh Det: -8.6%; 2A StopGo: 0.0%; Lassa entry inh: inconclusive

What do the screens show for `CC1CCCN(c2nc(N(C)c3ccccc3)nc(N)c2[N+](=O)[O-])C1` (stereo not drawn)?
NS1 function inh: -7.9%; MARV entry inh: inconclusive; SARS PLpro yeast: -1.0%; RE007 growth inh: 2.4%; 2A StopGo: -21.2%; Lassa entry inh: -20.6%

Results for O=c1oc2ccccc2n1CCCCCn1c(=O)oc2ccccc21 ?
Cruzain noTriton: -7.7%; NS1 function inh: -14.8%; MARV entry inh: inconclusive; SARS PLpro yeast: 3.5%; Cruzain inh Det: -1.1%; RE007 growth inh: -0.6%; 2A StopGo: 19.8%; Lassa entry inh: -19.1%

Results for CCN(C(=O)COc1cc(=O)n(C)c2ccccc12)c1cccc(C(F)(F)F)c1 ?
Cruzain noTriton: inconclusive; Cruzain inh Det: -3.1%; 2A StopGo: -24.1%; Lassa entry inh: -2.2%[46.1 µM]

What do the screens show for `Cc1cc(NC(=O)C2CCCN(S(=O)(=O)c3cn(C)cn3)C2)ccc1Br` (stereo not drawn)?
Cruzain noTriton: 4.3%; Cruzain inh Det: -2.0%; 2A StopGo: -9.6%; Lassa entry inh: inconclusive

What do the screens show for `O=C(Nc1ccc2c(c1)Cc1ccccc1-2)c1ccccc1F`?
MARV entry inh: inconclusive; RE007 growth inh: 6.5%; 2A StopGo: 24.5%; Lassa entry inh: -22.9%

Results for COc1ccc(-c2c(NCCc3ccccc3)c(=O)c2=O)cc1 ?
NS1 function inh: 0.9%; MARV entry inh: inconclusive; SARS PLpro yeast: 0.8%; RE007 growth inh: 2.1%; 2A StopGo: -19.1%; Lassa entry inh: 1.5%

How did Cc1ccc(NC(=O)C(OC(=O)c2ccc(NC(N)=O)cc2)c2ccccc2)cc1Cl (stereo not drawn) do in these assays?
Cruzain noTriton: 5.7%; NS1 function inh: 25.6%; MARV entry inh: inconclusive; SARS PLpro yeast: 22.2%; Cruzain inh Det: -7.6%; RE007 growth inh: -0.3%; 2A StopGo: 21.7%; Lassa entry inh: inconclusive

Results for Cc1cccc(C(=O)OCN2C(=O)c3ccccc3C2=O)c1[N+](=O)[O-] ?
NS1 function inh: 0.1%; SARS PLpro yeast: inconclusive; RE007 growth inh: 20.0%; 2A StopGo: -0.7%

How did COc1ccc(NC(=O)CC2C(=O)N(C)C(=S)N2CCc2ccccc2)cc1 (stereo not drawn) do in these assays?
Cruzain noTriton: -4.3%; NS1 function inh: -2.3%; MARV entry inh: inconclusive; SARS PLpro yeast: 5.8%; Cruzain inh Det: -6.2%; RE007 growth inh: -1.1%; 2A StopGo: inconclusive; Lassa entry inh: inconclusive

How did COCCN(Cc1cc2cc3c(cc2nc1Cl)OCO3)C(=O)Nc1ccc(F)cc1 do in these assays?
Cruzain noTriton: 1.6%; NS1 function inh: -3.5%; MARV entry inh: inconclusive; SARS PLpro yeast: 0.3%; Cruzain inh Det: -12.0%; RE007 growth inh: 3.2%; Lassa entry inh: inconclusive

What do the screens show for `Cc1ccc(NC(=O)C2CCN(c3nc4ccccc4[nH]3)CC2)cc1Cl`?
Cruzain noTriton: 11.7%; Cruzain inh Det: 0.4%; 2A StopGo: -4.3%; Lassa entry inh: -18.9%[46.1 µM]

What do the screens show for `CCOC(=O)c1c(OCC)[nH]c2ccc(O)cc12`?
Cruzain noTriton: -2.4%; NS1 function inh: 8.9%; MARV entry inh: -39.9%; SARS PLpro yeast: -8.5%; Cruzain inh Det: 2.9%; RE007 growth inh: -20.2%; 2A StopGo: 14.1%; Lassa entry inh: 3.1%

How did O=C(Cc1ccccc1[N+](=O)[O-])Nc1nccs1 do in these assays?
NS1 function inh: -4.9%; MARV entry inh: -5.8%[46.1 µM]; SARS PLpro yeast: 0.6%; RE007 growth inh: -5.2%; 2A StopGo: 6.1%; Lassa entry inh: -1.7%

Arranged by molar mass (lowest first): 3 of the compounds above
What do the screens show for `CSc1ccccc1NC(=O)C1=COCCO1`?
NS1 function inh: 3.4%; MARV entry inh: 3.1%[46.1 µM]; SARS PLpro yeast: -1.6%; RE007 growth inh: -10.2%; 2A StopGo: 0.4%; Lassa entry inh: 22.4%[46.1 µM]

How did O=C(Cc1ccccc1[N+](=O)[O-])Nc1nccs1 do in these assays?
NS1 function inh: -4.9%; MARV entry inh: -5.8%[46.1 µM]; SARS PLpro yeast: 0.6%; RE007 growth inh: -5.2%; 2A StopGo: 6.1%; Lassa entry inh: -1.7%

How did CCOc1ccc(NC(=O)NCCN2CCN(c3cc(Cl)ccc3C)CC2)cc1 do in these assays?
Cruzain noTriton: -5.4%; MARV entry inh: 9.4%[46.1 µM]; Cruzain inh Det: -1.6%; 2A StopGo: -19.6%; Lassa entry inh: inconclusive
